UCH37 DUB inh: inhibitors of human UCH37 deubiquitinase, primary screen, biochemical, Ub-AMC cleavage, fluorescence; purified proteasome/UCH37; inhibition, % (no concentration beside the values); Ubiquitin carboxyl-terminal hydrolase isozyme L5 (Homo sapiens), Q9Y5K5; hit rate 0.33% among 330,000;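 active = mean of two replicates above 20%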;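 note: 0% = compound-free wells with enzyme and 100% = wells lacking proteasome; stock transfer was 100 nL into about 20 µL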
Target sequence (Q9Y5K5 whole entry, looked up): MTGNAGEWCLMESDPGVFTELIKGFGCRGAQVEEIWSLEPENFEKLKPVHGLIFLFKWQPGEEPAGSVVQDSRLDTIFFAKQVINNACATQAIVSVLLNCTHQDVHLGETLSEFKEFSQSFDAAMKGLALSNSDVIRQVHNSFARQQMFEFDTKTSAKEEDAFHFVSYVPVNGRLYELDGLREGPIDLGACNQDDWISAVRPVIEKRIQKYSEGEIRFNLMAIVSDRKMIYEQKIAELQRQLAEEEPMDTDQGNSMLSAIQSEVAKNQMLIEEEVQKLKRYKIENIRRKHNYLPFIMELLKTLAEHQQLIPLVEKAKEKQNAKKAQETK
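Schedule: 30 min plus 25 min, room temperature / Material: human UCH37 within purified proteasomes / Technique: AMC fluorescence intensity at 355/460 nm / Buffer or medium: pH 7.4 Tris-HCl (50 mM) with ovalbumin, ATP-MgCl2, DTT / Controls: wells without proteasome as full block, compound-free enzyme plus substrate as uninhibited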
ALR inh: inhibitors of human ALR sulfhydryl oxidase, primary screen, biochemical, H2O2 detection, HRP-luminol luminescence, single point; FAD-linked sulfhydryl oxidase ALR (Homo sapiens), P55789; purified ALR, DTT oxidation; inhibition, % (concentration not given with the values); hit rate 3.8% among 290,000;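 active = mean and each replicate at 75% or more; inconclusive = only one of the two met; inactive = neither met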;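 note: stock transfer was 7.5 nL into about 7.5 µL; 0% = neutral wells and 100% = wells with inactivated enzyme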
Target sequence (P55789 whole entry, looked up): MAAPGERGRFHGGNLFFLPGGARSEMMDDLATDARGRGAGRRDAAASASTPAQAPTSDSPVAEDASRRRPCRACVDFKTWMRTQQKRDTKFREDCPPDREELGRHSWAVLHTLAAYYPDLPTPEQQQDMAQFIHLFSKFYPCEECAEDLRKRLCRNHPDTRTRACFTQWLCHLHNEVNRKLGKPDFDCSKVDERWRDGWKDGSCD
B2AR ag: beta2AR agonists driving receptor internalization, primary screen, cell-based, FAP fluorogen, flow cytometry | hit rate 0.43% among 340,000 | Am2.2-beta2AR cells; reference of the scale not given here | response, % (test concentration not listed);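 active = response above a set limit, near 3 SD of response in nonfluorescent compounds, cut at about 42% in these data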;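 note: stock transfer was 100 nL into about 11 µL; a reference agonist was the positive control; negative values mostly stem from fluorescent compounds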
HNF4A DNA FP: change in binding of human HNF4A to DNA, primary screen, biochemical, fluorescence polarization, FITC-DNA; Hepatocyte nuclear factor 4-alpha (Homo sapiens), P41235; 1 h; activity change, % at 10 µM; hit rate 0.3% among 360,000; AID 1224865, 2016; in the data active = activity change above about 30%, passing the limit was not always enough;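 note: controls were the assay level and a saturating level of protein; the project sought stronger binding though the title names inhibitors; some compounds called inactive have numbers as strong as hits; positive values seem to mean higher polarization but the record does not say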
Target sequence (P41235 whole entry, looked up): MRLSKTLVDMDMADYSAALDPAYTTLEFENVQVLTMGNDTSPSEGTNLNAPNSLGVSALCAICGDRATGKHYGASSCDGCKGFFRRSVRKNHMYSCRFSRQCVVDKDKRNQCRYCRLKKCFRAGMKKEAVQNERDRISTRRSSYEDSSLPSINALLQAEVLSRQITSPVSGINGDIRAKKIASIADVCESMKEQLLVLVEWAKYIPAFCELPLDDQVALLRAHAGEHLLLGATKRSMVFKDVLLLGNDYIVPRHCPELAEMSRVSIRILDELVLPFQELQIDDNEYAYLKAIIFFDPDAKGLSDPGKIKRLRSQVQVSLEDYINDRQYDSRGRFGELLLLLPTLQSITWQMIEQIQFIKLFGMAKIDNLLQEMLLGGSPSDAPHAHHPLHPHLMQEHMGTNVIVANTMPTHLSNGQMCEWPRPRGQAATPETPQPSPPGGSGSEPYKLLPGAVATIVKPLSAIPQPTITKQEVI
FGF22 binding: binders of human FGF22 protein, primary screen, FGF22 synaptogenesis inhibitor project, biophysical, thermal shift, single point | Fibroblast growth factor 22 (Homo sapiens), Q9HCT0 | recombinant FGF22 thermal shift, SYPRO orange fluorescence; percent of sucrose octasulfate shift, DMSO zero | hit rate 1.5% among 340,000 | calls only at 9.99 µM;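 active = melting point raised past a set limit in the mean and every replicate; inconclusive = no clear call; three in four hits are not shown here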
E coli growth: E. coli growth inhibition, primary screen, OD600; Escherichia coli growth, 23 h; hits give low values; OD600 absorbance (test concentration not listed); hit rate 0.21% among 330,000; AID 1053175, 2014;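 active = OD600 absorbance below the run mean of sample wells minus 3.6 SD, in any replicate, cut at about 0.56 in these data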;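 note: stock transfer was 300 nL into about 60 µL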
Ecoli rRNA inh: reduced GFP signal of wild-type E. coli, primary screen, bacterial rRNA inhibitor project, GFP/RFP fluorescence, OD600, single point. E. coli WT GFP vs humanized-ribosome RFP mutants, 24 h; hits give low values; DMSO median 0, no signal -100. AID 720706, 2013. hit rate 1.6% among 350,000. GFP signal change (wild-type ribosome), % (test concentration not listed);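 active = significant combined selectivity score with lowered wild-type GFP, culture density cut under 30%, mutant RFP and density less affected; inactive = any of these conditions unmet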; note: one replicate is shown; some compounds called inactive have numbers as strong as hits
Ecoli rRNA inh OD600: second read-out of Ecoli rRNA inh, no call of its own (marks repeat the call); OD600 change, %; measured here: OD600 growth;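 optical density of the mix in the first replicate; 0 = DMSO median and -100 = no signal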
Ecoli rRNA inh RFP: recorded beside Ecoli rRNA inh, whose call it bears; RFP signal change, %; measured here: RFP humanized mutant strains;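 first replicate; 0 = DMSO median and -100 = no signal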
The depositor's hits bear a star; i = inactive; u = inconclusive; x = no result given; + = active, no number; & = joins results of further samples.

SMILES	UCH37 DUB inh	ALR inh	B2AR ag	HNF4A DNA FP	FGF22 binding	E coli growth	Ecoli rRNA inh	Ecoli rRNA inh OD600	Ecoli rRNA inh RFP
COc1nc(NCCO)nc(Nc2ccccc2F)n1	3.9	17	-5	0.1	i	0.71	16	4	0.3
COc1ccc(-c2[nH]ncc2CN2CCN(Cc3cccs3)CC2)cc1F	-0.2	0	16	0.7	i	0.69	5	-3	-4.7
COc1ccc(-c2[nH]ncc2C=O)cc1OC	1.3	1	8	3.6	x	0.72	18	10	0.8
COc1ccccc1NC(=O)CCSc1ccc(C)cc1	4.2	-2	7	-0.5	i	0.69	-26	-33	-8.4
CN1CCN(CCCNC(=O)c2ccc3c(c2)N(Cc2ccccc2)CCS3)CC1	-474	99*	9	5.6	i	0.74	12	10	6.2
COc1ccc(CN(C)CC2CCCN(CCc3ccc(F)cc3)C2)c(OC)c1OC (stereo unspecified)	3.1	x	14	-9.9	i	0.65	10	5	-0.1
CCOc1ccccc1Oc1c(C)oc2c(CN3CCN(CCO)CC3)c(O)ccc2c1=O	-139	-1	6	0.2	x	0.65	x	x	x
CCN1CCN(c2nc3sc4c(c3c3ncnn23)CC(C)CC4)CC1 (stereo unspecified)	4.0	-17	-6	1.3	x	0.77	x	x	x
C/C=C1\NC(=O)[C@H](C)NC(=O)[C@@H](NC(=O)[C@H](Cc2ccc(O)cc2)NC(=O)[C@@H](NC(=O)/C(C)=C/C)C(C)C)[C@@H](C)OC(=O)[C@H](CC(C)C)NC(=O)[C@@H](CCC(=O)O)NC1=O	x	x	x	1.7	i	x	26	16	3.2
COc1ccc(-n2c(SCC(=O)Nc3ccc([N+](=O)[O-])cc3OC)nc3ccccc32)cc1	5.9	x	4	-0.8	x	0.7	x	x	x
COC(=O)c1cccc(C(=O)N2CCCC(Nc3ccc(C)c(C)c3)C2)c1 (stereo unspecified)	-0.3	98*	4	3.3	i	0.66	-7	-14	-2.9
COc1ccc2[nH]c3c(c2c1)CCN1C(=O)C(CC(=O)NCCc2ccccn2)C[C@H](C(=O)N2CCCCC2)[C@@]31CCc1ccccc1 (stereo partly specified)	-2.1	x	0	-0.2	i	0.71	-8	-4	-1.6
N#Cc1cccnc1Nc1cccc(Cl)c1	-0.6	-13	-11	-9.1	i	0.63	3	11	-2.0
Cc1ccc(S(=O)(=O)NCc2cccnc2)cc1C(=O)N1CCCC1	4.3	-5	9	2.0	i	0.67	6	17	-1.4
COc1ccc(N2CCN(C(=O)CSc3ncnc4c3cnn4-c3ccc(OC)cc3)CC2)cc1	-1.2	x	4	2.8	x	0.76	x	x	x
COc1ccc(CCNC(=O)CSc2ccc(NC(C)=O)cc2)cc1OC	4.6	98*	-6	-0.1	i	0.69	0	11	-2.2
CC1CCCN(CCOCCOc2ccc(Cl)cc2Br)C1 (stereo unspecified)	5.7	3	13	-0.2	x	0.63	x	x	x
COc1cccc(Nc2cc(C)nc3ccccc23)c1	6.7	-8	-11	2.3	x	0.6	x	x	x
COc1ccc(OC)c(NC(=O)CN(c2ccc(C(C)C)cc2)S(=O)(=O)c2c(C)noc2C)c1	3.1	95*	20	3.9	i	0.68	8	-5	-3.3
Cc1ccc(OCCCCn2cnc3ccccc32)cc1	0.7	-34	-4	-3.0	i	0.64	-46	-73	-11
O=C(CCc1nnc2ccc(NCc3ccco3)nn12)Nc1ccccn1	6.9	2	-11	-4.7	i	0.69	4	1	1.5
Cc1cc(NCCCO)n2c(nc3ccccc32)c1C#N	i	-2	-12	10	x	0.71	6	1	-0.1
Cc1ccc2c(CN3CCN(CCO)CC3)cc(=O)oc2c1C	2.0	-3	0	-2.7	x	0.69	x	x	x
CC1(C(=O)NS(=O)(=O)c2cccc(Cl)c2)CCN1C(=O)CC1CCCC1 (stereo unspecified)	x	x	x	3.7	i	x	4	-1	-1.7
CCN(CC)CCCNc1oc(-c2cccc(Cl)c2)nc1C#N	-383	23	5	4.4	x	0.71	x	x	x

3 compounds out of the list above, ordered by the value under Ecoli rRNA inh RFP, descending:
Molecule	UCH37 DUB inh	ALR inh	B2AR ag	Ecoli rRNA inh	Ecoli rRNA inh OD600	Ecoli rRNA inh RFP
CN1CCN(CCCNC(=O)c2ccc3c(c2)N(Cc2ccccc2)CCS3)CC1	-474	99*	9	12	10	6.2
COc1ccc(-c2[nH]ncc2C=O)cc1OC	1.3	1	8	18	10	0.8
Cc1ccc(OCCCCn2cnc3ccccc32)cc1	0.7	-34	-4	-46	-73	-11

Going on with the list.
SMILES	UCH37 DUB inh	ALR inh	B2AR ag	HNF4A DNA FP	FGF22 binding	E coli growth	Ecoli rRNA inh	Ecoli rRNA inh OD600	Ecoli rRNA inh RFP
CCOC(=O)c1c(NC(=O)CSc2nnc(-c3cccnc3)n2Cc2ccco2)sc(C)c1C	3.8	3	4	1.6	x	0.76	x	x	x
COc1ccc(/C=N/NC(=O)CSc2nnc(CCCc3ccc(OC)c(C)c3)o2)cc1	x	-5	-8	0.5	x	x	x	x	x
COc1ccc(CNC(=S)Nc2ccccc2)cc1Cl	1.9	4	-2	4.0	i	0.61	-21	-35	18
O=C1Cc2ccccc2C(=O)N1c1ccccc1	-5.6	x	6	-0.3	x	0.68	5	3	-0.4
Nc1nc(O)c(CC(=O)O)s1	x	x	-16	0.3	i	x	5	18	0.3
CCn1nc(C(=O)NCCc2ccc3c(c2)OCCO3)c2ccccc2c1=O	2.3	-3	-7	-0.4	i	0.67	-3	-7	0.7
O=C(O)c1cc(NS(=O)(=O)c2cccc3nsnc23)cc(C(=O)O)c1	5.4	-15	5	0.6	i	0.68	13	14	1.2
C[C@H](CO)N1C[C@H](C)[C@@H](CN(C)S(=O)(=O)c2ccccc2)Oc2c(NC(=O)C3CC3)cccc2C1=O	x	x	-7	-0.6	+	x	-2	-11	1.0
CC1CN(S(=O)(=O)c2cccc3nsnc23)CC(C)O1 (stereo unspecified)	-1.6	-9	-3	0.6	x	0.67	x	x	x
CCn1c(SCC(=O)N(C)Cc2ccc(OC)c(F)c2)nc2cc(S(N)(=O)=O)ccc21	1.4	-2	5	0.5	i	0.65	-1	-1	-1.6
COc1ccc2cc(CNCCOCCOCCNCc3ccc4cc(OC)ccc4c3)ccc2c1	x	x	37	4.6	i	x	-50	-80	-17
CCCc1cc(C(=O)NNC(=S)NCC)c2ccccc2n1	0.4	u	4	0.3	x	0.64	x	x	x
Cc1ccc(NC(=O)CN2C(=O)N/C(=C\c3cccn3-c3cccc(C(=O)O)c3)C2=O)cc1	9.1	x	-6	-45	x	0.68	x	x	x
COc1ccc(CNC(=O)C[C@@H]2C[C@H]3c4cc(NC(=O)NC5CCCC5)ccc4O[C@H]3[C@H](CO)O2)cc1	x	x	x	1.3	i	x	-1&1	7&4	12&2.0
CN(CCCNC(=O)CCC(=O)N1CCOc2ccc(Cl)cc21)Cc1ccccc1	5.6	93*	-1	-0.1	i	0.71	-1	0	-2.0
O=C(CCN1CCOCC1)Nc1ccc2c(c1)CCC2	2.2	-5	0	2.4	x	0.72	x	x	x
C[C@@H]1CN([C@H](C)CO)C(=O)c2cc(C#Cc3ccccc3F)cnc2O[C@@H]1CN(C)S(=O)(=O)c1ccccc1F	x	x	x	-0.8	i	x	4&-2	18&-1	-0.5&1.8
COc1ccc(S(=O)(=O)N2CCOC23CCN(C(=O)c2ccccc2Br)CC3)cc1	1.7	-6	0	1.7	i	0.7	2	-6	1.8
CNC(=O)c1c(Cl)cnn1-c1ccc(F)cc1	1.0	2	-2	5.6	i	0.63	3	3	-0.2
COc1ccc(OCCOC(=O)C(C)NS(=O)(=O)c2ccc(NC(C)=O)cc2)cc1 (stereo unspecified)	1.9	-5	7	4.2	i	0.69	x	x	x
O=C(c1ccc(Cl)nc1)N1CCC(Cc2ccccc2)CC1	-2.0	-3	7	0.2	i	0.73	-10	-8	-11
O=C1C2C(C(=O)N1Cc1cccnc1)C1C=CC2C12CC2 (stereo unspecified)	4.4	-4	8	1.3	x	0.69	x	x	x
O=C(COC(=O)c1ccc2ncsc2c1)Nc1cc(Cl)ccc1F	-1.8	x	-6	-1.3	i	0.68	5	-1	2.1
O=C(Nc1ccc(Cl)cc1F)c1ccc(-n2cncn2)cc1	-0.9	-3	-5	2.7	i	0.69	5	13	-3.1
COc1ccc(Cl)cc1C(=O)Nc1ccc(Br)c(C)n1	1.0	3	1	-6.7	x	0.69	13	1	0.7

The list continues:
SMILES	UCH37 DUB inh	ALR inh	B2AR ag	HNF4A DNA FP	FGF22 binding	E coli growth	Ecoli rRNA inh	Ecoli rRNA inh OD600	Ecoli rRNA inh RFP
CCN(CCO)c1ccc(NC(=S)Nc2cccc(S(=O)(=O)N(C)C)c2)cc1	3.4	99*	0	-3.0	i	0.7	-2	-1	3.1
COc1ccc(CCNC(=O)C2CCN(C(=O)c3ccc(Br)cc3)CC2)cc1	4.2	x	-5	2.3	i	0.66	6	-6	3.1
Cc1cc(=O)oc2cc(NC(=O)C(C)Oc3cccc(Cl)c3)ccc12 (stereo unspecified)	-21	x	13	1.1	x	0.66	10	5	0.8
O=C(COc1ccc(Br)cc1Cl)NC(=O)Nc1ccc2c(c1)OCCO2	5.4	-1	6	-2.5	i	0.71	3	7	1.4
COC(=O)C1=C(C)N(c2ccc(C)cc2)/C(=C/c2cccs2)C1=O	5.8	x	-11	-2.8	x	0.68	x	x	x
CNC(=O)CN1C(=O)COc2ccc(S(=O)(=O)N3CCCCCC3)cc21	2.6	1	-2	-0.8	i	0.71	3	16	-1.9
O=C(OCN1C(=O)c2ccccc2C1=O)c1cc(S(=O)(=O)N2CCOCC2)ccc1F	1.1	x	-4	-4.7	i	0.67	8	7	-1.3
Cc1cc2oc(=O)cc(CN3CCCCC3C)c2cc1C(C)C (stereo unspecified)	0.4	4	4	4.7	i	0.63	-9	-17	1.7
COc1cccc(-c2nc(-c3ccccc3)c3ccc(Cl)cc3n2)c1	x	x	x	1.7	i	x	14	19	-2.3
O=C(NCCc1ccccc1)C1CCC(CNc2c(N3CCCCC3)c(=O)c2=O)CC1 (stereo unspecified)	6.8	x	-3	1.1	i	0.74	4	2	1.3
CCOc1cc(Cl)c(NC(=O)CC)cc1OCC	2.2	-1	0	2.0	x	x	x	x	x
COc1ccc(S(=O)(=O)NCCc2ccccc2)cc1OC	4.2	2	3	4.5	i	0.65	6	10	3.3
Cc1cc(C)n2nc(SCC(=O)N3CCCCC3C)nc2n1 (stereo unspecified)	3.6	-5	-8	-2.5	i	0.72	3	5	-0.8
N#C/C(=C\c1ccc(N2CCOCC2)o1)c1ccccc1	2.5	x	11	78*	i	0.67	13	2	6.8
CCn1c(=NC(=O)CS(=O)(=O)c2ccc(C)cc2)sc2cccc(OC)c21	-2.3	-8	2	-1.9	i	0.68	-43	-68	-6.8
CCOC(=O)C1CCN(C(=O)COC(=O)CNS(=O)(=O)c2ccc(SC)c([N+](=O)[O-])c2)CC1	4.3	x	11	0.4	i	0.68	5	10	1.3
CN1/C(=C\C(=O)CSc2cccc[n+]2[O-])C(C)(C)c2ccccc21	-8.8	-31	-9	8.6	i	0.71	-18	-8	65
CCCS(=O)(=O)N1CCN(CCN2C(=O)c3cccc4cccc(c34)C2=O)CC1	-3.4	1	4	1.2	i	0.69	-4	-12	-6.5

Not all compounds are listed. The share of hits here may be higher or lower than overall.
